# Mtb hypoxia inh: Mtb hypoxia fluorescent reporter inhibition; fluorescence inhibition, % (test concentration not listed); 300,000 tested, 0.1% active; AID 1159583; M. tuberculosis hypoxia-regulated fluorescent reporter, fluorescence;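 active means 35 to 45% if threefold the growth effect, above 45% if 1.5-fold the growth effect; inactive means the rest, general growth blockers included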;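 further: wells of about 50 µL received 100 nL stock; 0% = vehicle wells and 100% = reference inhibitor wells; whole bacteria with a GFP reporter of the hypoxia response; strong numbers were not always called active; many hits fall short of the cut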
# Sa RN4220 lethal: kills Staphylococcus aureus RN4220; S. aureus RN4220 growth, OD600, 16 h; 330,000 tested, 0.33% active; inhibition, % (no concentration beside the values);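 active means z-score of -3 or lower and OD600 up to 0.18 on both plates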;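 further: plate controls were untreated cells for no effect and reference antibiotic for full effect; stock transfer was 100 nL into about 80 µL; one replicate is shown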
# PrP 5UTR inh: suppresses PrP 5' UTR mRNA reporter expression | 340,000 tested, 0.35% active | cell-based PrP 5' UTR mRNA reporter, plate reader | inhibition, % (test concentration not listed);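 active means every replicate at 50% or more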;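 further: 0 = median of the neutral control wells; tested in H4 reporter cells; numbers are from one replicate; inactives centre near -14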
# BJeLR lethal: BJeLR cell viability loss; BJeLR (HRASV12) viability, CellTiter-Glo ATP luminescence, 48 h; reference of the scale not given here; inhibition, % (concentration not given with the values); 300,000 tested, 0.17% active; AID 1554;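 active means replicate mean above 50%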;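 further: 50 nL library stock added to about 25 µL; numbers are from one replicate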
# ugtP null kill: compounds lethal to S. aureus RN4220 ugtP deletion mutant | OD600 growth, 16 h; some inactives read as strong as hits | growth inhibition, % (concentration not given with the values) | AID 1259309 | 330,000 tested, 0.54% active;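 active means z-score under -3 and OD600 up to 0.15 on both plates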;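 further: plate controls were untreated wells for no effect and antibiotic for full effect; wells of about 80 µL received 100 nL stock; the first replicate is given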
# Bead autofluor: flagged as autofluorescent in microsphere protease counterscreen; compound autofluorescence counterscreen, microsphere flow cytometry; stronger effect = higher value; fluorescence intensity (no concentration beside the values); 360,000 tested, 3.1% active; AID 624483;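 active means at least 3 SD above the mean of all compounds, about 16000 in these data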;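 further: 100 nL of 1 mM stock went into each well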
# Mtb hypoxia inh growth: further read-out of Mtb hypoxia inh, marked with its call; growth inhibition, %; measured here: M. tuberculosis growth (absorbance);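 0% = vehicle and 100% = reference antibiotic; read after six days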
# Active calls of the source: *; nt = no result given.
structure,Mtb hypoxia inh,PrP 5UTR inh,ugtP null kill,Bead autofluor,BJeLR lethal,Mtb hypoxia inh growth,Sa RN4220 lethal
CCOC(=O)C1C2COc3ccc(C)cc3C2N2C(=O)c3ccc(C)cc3NC(=O)[C@@]12C (some centres not stated),0.7,nt,-6.4,nt,nt,9.4,4.8
Nn1c(-c2cccc(Br)c2)n[nH]c1=S,15.6,-12.3,-8.8,3504,3.0,5.2,-1.3
N/C(=N\OC(=O)CCCc1ccccc1)c1ccccc1Cl,6.7,-26.0,-7.1,6265,10.9,3.9,6.3
CCN(C(=O)COc1ccccc1)c1nnc(-c2cccnc2)s1,nt,-20.5,-6.1,4359,-6.1,nt,-2.2
CCn1c(=O)cc(SCC(=O)NCCCN2CCC(C)CC2)c2ccccc21,nt,-20.1,nt,2605,2.5,nt,nt
CCCCOC(=O)c1ccc(NC(=S)NC(=O)c2c(Cl)cnn2CC)cc1,nt,-19.8,10.9,2234,-3.9,nt,5.7
Cc1cc(C)cc(OCC(=O)Nc2ccc(F)cc2)c1,17.6,-18.6,-3.6,7789,0.0,12.0,9.5
CC(=O)N1CCCC(N2CCN(c3cccc(C(F)(F)F)c3)CC2)C1 (configuration not stated),-4.7,-23.8,9.7,4219,8.3,2.0,2.8
N#CC(C#N)=Cc1c[nH]c(=O)c(C#N)c1Nc1ccccc1,0.4,nt,3.6,3555,-5.5,-7.9,4.3
CCOC(=O)c1nnn(-c2nc(OC)nc(N(C)C)n2)c1-c1ccccc1,nt,-19.6,-1.7,4865,-8.4,nt,0.0

# A second format for part of the listing above.
# Values run as follows: Mtb hypoxia inh | PrP 5UTR inh | ugtP null kill | Bead autofluor | BJeLR lethal | Mtb hypoxia inh growth | Sa RN4220 lethal
- CCOC(=O)c1nnn(-c2nc(OC)nc(N(C)C)n2)c1-c1ccccc1
  nt | -19.6 | -1.7 | 4865 | -8.4 | nt | 0.0
- CC(=O)N1CCCC(N2CCN(c3cccc(C(F)(F)F)c3)CC2)C1 (configuration not stated)
  -4.7 | -23.8 | 9.7 | 4219 | 8.3 | 2.0 | 2.8
- N/C(=N\OC(=O)CCCc1ccccc1)c1ccccc1Cl
  6.7 | -26.0 | -7.1 | 6265 | 10.9 | 3.9 | 6.3

# Continued:
structure,Mtb hypoxia inh,PrP 5UTR inh,ugtP null kill,Bead autofluor,BJeLR lethal,Mtb hypoxia inh growth,Sa RN4220 lethal
Cc1cc(SCc2ccc(Cl)c(Cl)c2)nc(=O)[nH]1,-0.2,-7.6,-1.5,6383,1.3,-2.1,1.1
CC(=NOC(=O)c1c(-c2ccccc2Cl)noc1C)c1nccs1,3.5,nt,9.1,nt,nt,6.6,4.8
CCNC(=O)NC(=O)C(C)OC(=O)C1CCN(S(=O)(=O)c2ccccc2F)CC1 (configuration not stated),-2.2,-17.8,2.9,1950,3.8,7.5,3.3
Cc1cccc(CC(=O)NC2CCN(C)CC2)c1,11.0,-22.6,5.1,3813,-0.7,-1.5,3.3
C=CCSc1n[nH]c(-c2ccc(OC)cc2)n1,2.0,-39.6,-2.1,11113,2.2,7.3,6.2
Cc1cccc(OC(C)c2ccnc3nc(N=CN(C)C)nn23)c1 (configuration not stated),4.9,nt,1.1,nt,nt,6.0,0.5
COc1ccc(OC(=O)Cc2cccc3ccccc23)cc1,0.4,-10.8,19.2,3481,5.7,13.9,7.7
COc1ccc(C(=O)NN=Cc2sc(N3CCOCC3)nc2-c2ccccc2)cc1OC,-5.5,nt,1.0,nt,nt,10.3,-2.1
Cc1nc2nc(SCc3ccccc3)[nH]n2c(=O)c1CCC(C)C,10.3,-14.2,-2.8,3610,-3.0,2.5,3.1
COc1cc(/C=C2/SC(=O)NC2=O)ccc1OCc1ccccc1,6.2,8.3,19.2,nt,4.8,0.5,11.0
COc1ccc(-c2cn3ccc4ccccc4c3n2)cc1,11.9,-81.5,12.2,3607,2.2,0.4,-3.1
O=C(NCc1ccncc1)c1cn(-c2ccccc2)nc1-c1cccnc1,15.0,-2.2,7.1,4307,7.8,14.2,5.2
O=[N+]([O-])c1cc([N+](=O)[O-])c(Oc2ccccc2F)cc1NN1CCCCC1,19.9,-9.4,2.4,2929,-1.3,6.8,-1.1
CCOc1ccc(-c2nc(CSCC(=O)N3CCN(c4cccc(OC)c4)CC3)c(C)o2)cc1,-6.8,-12.0,8.1,4186,-6.6,15.0,10.7
COc1ccccc1N1CCN(C(=O)c2ccc3c(=O)n(Cc4ccco4)c(=S)[nH]c3c2)CC1,-6.2,-26.6,13.1,8541,23.8,11.1,-9.9
C=CCNC(=O)c1ccc2nccnc2c1,3.1,-25.9,-0.1,5065,2.3,11.5,-0.2
CN(C)C(=O)CCc1ccc2c3c([nH]c2c1)[C@]1(C)[C@@H](C(=O)N2CCOCC2)C[C@H](CC(=O)NCCCn2ccnc2)C(=O)N1CC3,-0.1,0.4,3.1,3622,nt,3.4,1.8
CCC(C)C(NC(N)=O)C(=O)Nc1ccc(C)c(Cl)c1 (configuration not stated),6.4,-25.6,0.9,2383,6.0,8.0,4.5
Cc1cc(C#N)c(C)n1-c1cc(C(F)(F)F)ccc1N1CCOCC1,8.3,-10.9,13.0,9298,-5.2,9.8,8.5
CCC(C)(C)NC(=O)C(c1ccncc1)N(C(=O)c1sc(C)nc1C)c1ccc(C)cc1 (configuration not stated),-0.5,-10.2,6.5,4347,1.4,8.1,1.3
S=c1[nH]nc(-c2ccc3ccccc3n2)o1,-6.5,-17.9,-5.5,2995,-5.3,4.3,22.8
CC(NC(=O)c1nc[nH]c1C(=O)NC(C)c1ccccc1)C(=O)OCc1ccccc1 (configuration not stated),9.3,nt,-16.4,nt,nt,3.6,6.7
CC(C)n1c(Nn2cnnc2)nc2ccccc21,nt,-18.2,-9.0,4887,-0.4,nt,-1.9
O=C(O)c1ccc(Nc2ncnc3ccccc23)cc1,-0.6,-18.9,2.8,2955,7.9,-0.6,1.9
C=CCc1c(C)[nH]c(=S)c(C#N)c1C,nt,-12.9,-1.5,4843,-7.5,nt,2.2
COC(=O)c1cccc(NC(=S)N2CCOCC2)c1,11.7,-21.5,12.7,2116,6.3,18.3,8.9
CCOC(=O)Cc1csc(NC(=O)c2ccc(N3CCOCC3)cc2[N+](=O)[O-])n1,-8.1,5.0,-7.4,3882,nt,7.6,-3.0
CC(=O)c1cccc(NC(=S)NC(=O)c2ccc(C)cc2)c1,8.7,-82.0,1.0,4436,10.6,15.1,-0.7
C=CCC1Cc2c(Br)cccc2C(CC=C)N1 (configuration not stated),5.2,11.1,13.0,5843,3.6,8.1,3.0
CC(C)(C)OC(=O)CNC(=O)c1[nH]cnc1C(=O)NC(Cc1ccccc1)C(=O)OCc1ccccc1 (configuration not stated),-0.8,nt,8.9,nt,nt,6.7,8.9
O=C(O)CCC(=O)N1N=C(c2c(-c3ccccc3)c3cc(Cl)ccc3[nH]c2=O)CC1c1cccs1 (configuration not stated),0.2,-7.9,-6.3,2338,8.5,6.9,-2.2
O=C(NCc1ccccc1)c1cc[n+](CC(=O)c2cccs2)cc1,12.6,2.0,3.3,3578,1.7,1.2,3.0
O=C(NCc1ccc2c(c1)OCO2)c1ccc2snnc2c1,20.2,-16.1,-2.6,3381,19.9,18.8,-14.7
O=C1C=C(NCCNc2c(F)c(F)c(CO)c(F)c2F)CCC1,nt,3.8,-4.1,5957,11.0,nt,-0.5
CC1CCC(C(=O)NC(C(=O)NCc2ccccn2)C(C)C)CC1 (configuration not stated),-6.2,-1.5,0.1,4345,-7.3,6.1,1.7
O=C(CS(=O)CC(=O)N(CC(=O)NC1CCCC1)C1CCCCC1)Nc1ccc(F)cc1 (configuration not stated),0.6,-20.9,4.1,9523,-2.3,6.0,4.4
CCOC(=O)c1ccc2nc3c(cc2c1)CCS3,0.9,nt,-0.2,10458,-2.6,5.5,5.8
O=C(COc1ccccc1F)OCC(=O)c1ccc([N+](=O)[O-])cc1,6.7,-11.7,0.1,nt,nt,0.6,4.0
CCCCOc1ccc(NC(=O)CSCC(=O)OCC)cc1,8.9,-26.9,7.4,20980*,2.6,6.7,-1.5
O=C(O)CCC(=O)Nc1cccc(C(=O)Nc2ccc(Br)cc2)c1,3.1,2.2,9.2,3449,-0.4,-8.4,5.0
CCC(=O)N1c2ccc(S(=O)(=O)N3CCCC3)cc2CC1C (configuration not stated),11.5,-6.5,4.1,5913,4.2,4.9,3.1
CCC(C)N(C(=O)COc1ccc(Cl)c2cccnc12)C1CCS(=O)(=O)C1 (configuration not stated),nt,-10.4,nt,5794,-2.9,nt,nt
Cc1nn(C)cc1C(C(=O)NC1CCCCC1)N(C(=O)Cc1cccs1)c1ccc(F)cc1 (configuration not stated),8.7,3.3,6.5,2410,8.0,0.6,4.2
Cc1ccc(C(=O)OC(C)C(=O)NC(C)CCc2ccccc2)o1 (configuration not stated),-7.3,-20.0,-2.8,3924,nt,7.6,-0.6
COc1cc(NC(=O)c2cc(-n3cnnc3)ccc2Cl)cc(OC)c1,nt,-11.3,0.9,5361,-2.1,nt,-2.4
COc1ccccc1NC(=O)Cc1nnc(SCC(=O)c2ccc(F)cc2)n1C,-4.6,-6.8,11.2,5630,7.2,3.1,3.8
C[C@H](NC(=O)c1nc[nH]c1C(=O)N[C@@H](CCCCNC(=O)OC(C)(C)C)C(=O)OC(C)(C)C)C(=O)OC(C)(C)C,nt,-7.0,nt,3581,-8.1,nt,nt
O=C(NCc1ccccc1)C(c1cccnc1)N(C(=O)c1ccccn1)c1cccc(F)c1 (configuration not stated),5.3,-9.4,7.7,4300,-4.2,-0.4,7.5
FC(F)(F)c1cccc(NCc2n[nH]c(=S)n2C2CCCCC2)c1,1.8,-15.8,-5.0,4259,1.0,5.9,5.1
CCOC(=O)C1(CCc2ccccc2)CCN(C(=O)[C@@H]2C[C@@H](C)NC(=S)N2)CC1,2.7,-23.7,9.7,4926,3.4,2.5,-2.2

# 2 of these compounds, reformatted:
> CC(NC(=O)c1nc[nH]c1C(=O)NC(C)c1ccccc1)C(=O)OCc1ccccc1 (configuration not stated)
- Mtb hypoxia inh: 9.3
- PrP 5UTR inh: nt
- ugtP null kill: -16.4
- Bead autofluor: nt
- BJeLR lethal: nt
- Mtb hypoxia inh growth: 3.6
- Sa RN4220 lethal: 6.7
> O=C(COc1ccccc1F)OCC(=O)c1ccc([N+](=O)[O-])cc1
- Mtb hypoxia inh: 6.7
- PrP 5UTR inh: -11.7
- ugtP null kill: 0.1
- Bead autofluor: nt
- BJeLR lethal: nt
- Mtb hypoxia inh growth: 0.6
- Sa RN4220 lethal: 4.0

# Next structures follow.
structure,Mtb hypoxia inh,PrP 5UTR inh,ugtP null kill,Bead autofluor,BJeLR lethal,Mtb hypoxia inh growth,Sa RN4220 lethal
O=C1CCC(=O)N1OCCOc1ccc2c(c1)CCC2,nt,-41.8,2.3,5046,6.1,nt,0.7
CC(NC(=O)c1ccc(F)cc1)C1CC2CCC1C2 (configuration not stated),nt,-6.4,-3.4,4891,10.5,nt,5.5
CCC(C)(C)NC(=O)C(c1ccc(OC)cc1)N(C(=O)CCC(=O)Nc1cc(C)on1)c1ccc2c(c1)OCO2 (configuration not stated),-2.9,2.2,3.3,3727,-4.8,6.2,0.3
C=CCN(C(=O)c1csnn1)C(C(=O)NC1CCCCC1)c1ccc(F)cc1 (configuration not stated),15.1,-1.2,0.5,4019,1.8,-0.4,2.7
Cc1cccc(OCC(=O)Nc2ccc(N3CCN(C(=O)c4ccccc4)CC3)cc2)c1,12.1,-11.1,-3.5,2384,3.8,2.7,2.8
